# Screening data: PubChem, several laboratories
# BJeLR viability: kills HRASV12-expressing BJeLR cells; BJeLR (HRASV12) viability, CellTiter-Glo ATP luminescence, 48 h; reference of the scale not given here; inhibition, % (test concentration not listed); 300,000 compounds, 0.17% hits; AID 1554;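 active = replicate mean above 50%; inconclusive = above 50% but judged a plate artefact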;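 also: 50 nL library stock added to about 25 µL; numbers are from one replicate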
# Bead autofluor: counter-screen for toxin protease inhibitors: compound fluorescence; 360,000 compounds, 3.1% hits; compound autofluorescence counterscreen, microsphere flow cytometry; active compounds read high; fluorescence intensity (concentration not given with the values);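 active = at least 3 SD above the mean of all compounds, about 16000 in these data; inconclusive = too few beads counted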;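 also: 100 nL of 1 mM stock went into each well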
# Mtb hypoxia rep: reduces hypoxia-regulated biosensor signal in M. tuberculosis; M. tuberculosis hypoxia-regulated fluorescent reporter, fluorescence; 300,000 compounds, 0.1% hits; AID 1159583; fluorescence inhibition, % (test concentration not listed);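 active = 35 to 45% if threefold the growth effect, above 45% if 1.5-fold the growth effect; inactive = the rest, general growth blockers included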;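 also: wells of about 50 µL received 100 nL stock; 0% = vehicle wells and 100% = reference inhibitor wells; whole bacteria with a GFP reporter of the hypoxia response; strong numbers were not always called active; many hits fall short of the cut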
# PrP UTR inh: suppresses PrP 5' UTR mRNA reporter expression; inhibition, % (test concentration not listed); cell-based PrP 5' UTR mRNA reporter, plate reader; AID 488862; 340,000 compounds, 0.35% hits;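 active = every replicate at 50% or more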;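 also: 0 = median of the neutral control wells; tested in H4 reporter cells; numbers are from one replicate; inactives centre near -14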
# Sa ugtP lethal: kills S. aureus RN4220 lacking UgtP. growth inhibition, % (test concentration not listed). S. aureus RN4220 ugtP deletion, OD600 growth, 16 h; some inactives read as strong as hits. 330,000 compounds, 0.54% hits. AID 1259309;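 active = z-score under -3 and OD600 up to 0.15 on both plates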;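 also: plate controls were untreated wells for no effect and antibiotic for full effect; wells of about 80 µL received 100 nL stock; the first replicate is given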
# RN4220 kill: kills Staphylococcus aureus RN4220 | inhibition, % (concentration not given with the values) | S. aureus RN4220 growth, OD600, 16 h | 330,000 compounds, 0.33% hits | AID 1259311;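 active = z-score of -3 or lower and OD600 up to 0.18 on both plates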;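 also: plate controls were untreated cells for no effect and reference antibiotic for full effect; stock transfer was 100 nL into about 80 µL; one replicate is shown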
# Mtb hypoxia rep growth: further read-out of Mtb hypoxia rep, marked with its call; growth inhibition, %; measured here: M. tuberculosis growth (absorbance);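 0% = vehicle and 100% = reference antibiotic; read after six days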
# Active calls of the source: *; ? = inconclusive; nt = no result given.
Molecule | Sa ugtP lethal | RN4220 kill | BJeLR viability | Mtb hypoxia rep growth | PrP UTR inh | Bead autofluor | Mtb hypoxia rep
O=C(NCc1ccco1)c1nn(-c2ccccc2)c(=O)c2ccccc12 | -6.3 | -0.3 | 0.6 | 3.7 | 14.3 | 21403* | -6.9
COc1ccc(S(=O)(=O)N(CCCN2CCCC2=O)Cc2cc3cc(C)c(C)cc3[nH]c2=O)cc1 | -0.6 | 0.2 | 4.2 | nt | 11.0 | 5039 | nt
N#Cc1c2n(c3c(=O)n(Cc4ccccc4)cnc13)CCCC2 | 4.2 | 0.2 | 5.2 | -2.6 | 0.8 | 17920* | 0.1
CC(C)c1ccc(C2(C)NC(=O)N(CC(=O)NC3CCCC(C)C3C)C2=O)cc1 (configuration not stated) | 11.3 | 3.2 | nt | 0.1 | -16.0 | 3939 | -0.7
CC(=O)c1ccc(S(=O)(=O)N2CCNC(=O)C2)cc1 | -0.5 | 3.8 | nt | 10.3 | -5.6 | 4237 | -1.3
Cc1cc(C)n(-c2nc3ccccc3nc2N2CCN(C(=O)c3ccc(F)cc3)CC2)n1 | 9.1 | 7.1 | -9.1 | -4.3 | -24.0 | 6653 | 5.7
Cc1nc(-c2ccc3c(c2)OCO3)cs1 | -6.3 | 13.9 | -5.8 | 1.8 | -15.6 | 8268 | 1.9
O=c1c(Cl)c(N/N=C/c2ccc(Cl)cc2)cnn1-c1ccccc1 | nt | nt | 4.2 | nt | -11.9 | 2020 | nt
CCCc1ccc(OCC(=O)O)cc1 | 0.7 | 5.1 | -2.2 | 9.3 | -15.2 | 9022 | -4.3
COc1cc(C=NNC(=O)C23CC4CC(CC(C4)C2)C3)cc(Br)c1O | -1.8 | 1.3 | nt | nt | nt | nt | nt
Cc1noc(C)c1COc1cccc(C(=O)Oc2ccc3c(c2)OCO3)c1 | 30.9 | 8.3 | 3.1 | 10.5 | -23.1 | 6031 | 16.6
CN=c1scc(-c2ccccc2F)n1N=C(C)c1cccnc1 | -6.1 | 2.2 | nt | 5.1 | nt | nt | -7.9

# Brought forward from above: 2 entries, followed by the next part.
Molecule | Sa ugtP lethal | RN4220 kill | BJeLR viability | Mtb hypoxia rep growth | PrP UTR inh | Bead autofluor | Mtb hypoxia rep
Cc1noc(C)c1COc1cccc(C(=O)Oc2ccc3c(c2)OCO3)c1 | 30.9 | 8.3 | 3.1 | 10.5 | -23.1 | 6031 | 16.6
CN=c1scc(-c2ccccc2F)n1N=C(C)c1cccnc1 | -6.1 | 2.2 | nt | 5.1 | nt | nt | -7.9
COC(=O)CSc1nccc(-c2cccs2)n1 | 3.1 | 3.3 | 4.6 | -2.8 | -27.7 | 4274 | 3.0
CC(C)(C)C(=O)N1CCN(c2ccc([N+](=O)[O-])cc2Cl)CC1 | 3.3 | 1.1 | 2.8 | nt | -21.3 | 2492 | nt
CCOc1cc(/C=N\NC(=O)Cn2nc([N+](=O)[O-])cc2C)ccc1OCc1cccc2ccccc12 | nt | nt | -0.3 | nt | -28.9 | 4469 | nt
Cc1ccc(C=NNC(=O)c2cc(C)oc2C)o1 | -8.9 | -14.9 | nt | 5.2 | nt | nt | 7.8
O=C(CSc1nc2c(c(C(F)(F)F)n1)CCc1ccccc1-2)NCc1ccco1 | 21.3 | -1.9 | 0.4 | -5.3 | -19.2 | 6087 | 12.0
COc1nc(-c2cccs2)cc(-c2ccc(C)cc2)c1C#N | 10.9 | 6.4 | 4.5 | 9.0 | -23.1 | 21880* | -3.3
CC(C)CNC(=O)c1ccccc1C(=O)NC1(C(=O)NCC(C)C)CCCC1 | 2.8 | 2.3 | nt | 9.8 | -13.2 | 4189 | 4.9
COc1cc(NS(=O)(=O)c2ccc(NC(=S)NC(=O)/C=C/c3ccc(F)cc3)cc2)ncn1 | nt | nt | -0.8 | nt | -10.2 | 3452 | nt
O=C(COc1ccc(Cl)cc1)NCCN1CCCC1 | 0.2 | 2.9 | 12.4 | 1.3 | -16.9 | 4108 | 17.2
O=S1(=O)N=C(N(CCO)N=Cc2ccccc2F)c2ccccc21 | 3.4 | 3.6 | nt | 2.7 | nt | nt | 4.5
O=C(CSc1nnnn1-c1cccnc1)NCc1cccs1 | 0.6 | 8.6 | 4.2 | nt | -2.9 | 3778 | nt
COc1ccc(CC2CC(=O)N(c3ccc(C)cc3)C2=O)cc1 (configuration not stated) | 12.9 | 4.8 | -7.6 | 5.5 | -18.9 | 3727 | 11.9
CC(C)c1ccc(NC(=O)CN2C(=O)c3ccccc3S2(=O)=O)cc1 | 2.9 | -3.1 | 13.0 | -1.3 | -15.8 | 3517 | 0.3
O=C(NCCC1=CCCCC1)C1CCC(=O)N(Cc2ccc(Cl)cc2)C1 (configuration not stated) | 0.4 | 2.1 | -6.0 | 4.4 | -1.1 | 5994 | -4.2
COc1ccc(CCNC(=O)c2cc(COc3c(F)cccc3F)on2)c(OC)c1 | 7.4 | 0.2 | -1.8 | 4.4 | -17.5 | 5483 | 4.6
CC(=O)Nc1ccc(C=NNC(=S)NC(C)C)cc1 | 7.6 | -0.6 | nt | 18.6 | nt | nt | 6.8
O=C(c1cccc(-c2ccccc2)c1)N1CC[C@@H](N2CCC(O)CC2)[C@H](O)C1 | nt | nt | -1.4 | nt | -11.6 | 19128* | nt
C=CCSc1nc2ccccc2n1C(=O)/C=C/c1ccc(OC)c(OC)c1 | -5.6 | -2.1 | 14.7 | 8.7 | -56.6 | 10777 | 13.3
Cc1c(NC(=S)Nc2ccc(Cl)cc2)c(=O)n(-c2ccccc2)n1C | -0.9 | 0.5 | 3.4 | 0.5 | 7.6 | 4803 | 11.1
c1ccc(OCCCN2CCCC2)cc1 | -4.6 | 10.5 | 0.1 | 6.8 | -25.0 | 11259 | 10.5
Cc1nc(-c2ccc(S(=O)(=O)N3CCCCCC3)cc2)cs1 | -2.0 | -8.1 | 3.0 | 6.6 | -32.0 | 2815 | -0.4
Nc1ncnc2c1ncn2C1CCCO1 (configuration not stated) | -2.5 | 4.3 | nt | 1.2 | -48.4 | 5504 | -0.2
Cc1ccc(/C([O-])=C(/C(=S)Nc2ccc(SC(F)F)cc2)[n+]2ccccc2)cc1[N+](=O)[O-] | -5.9 | 1.4 | -1.3 | 12.9 | -52.9 | 4510 | 15.5
CN1CCN(c2ccc(S(=O)(=O)N3CCOCC3)cc2NC(=O)COc2ccc(F)cc2Cl)CC1 | 3.2 | 2.5 | -9.0 | 2.4 | -8.4 | 5753 | 2.6
CCn1nc(NS(=O)(=O)c2ccc([N+](=O)[O-])cc2)c2cc3cc(C)ccc3nc21 | -4.3 | -0.1 | -12.3 | 5.7 | -1.3 | 5555 | 3.7
CC(=O)NCCOC(=O)Nc1sc(=S)n(C)c1C | 4.9 | 2.0 | 5.7 | 8.3 | -8.9 | 3161 | 9.6
COc1ccc(N=Cc2oc3ccc4ccccc4c3c2O)cc1 | -6.4 | 0.3 | -2.7 | -18.7 | -42.7 | 3734 | -1.0
CCC(C)c1ccccc1N=Cc1ccc2c(c1)OCO2 (configuration not stated) | 1.0 | 3.1 | -0.8 | -3.3 | -19.9 | 5740 | 1.5
CC(C)(C)c1ccc(-n2ncc3c2CCCC3NC(=O)CCn2cncn2)cc1 (configuration not stated) | -2.0 | -2.5 | -1.6 | -9.0 | -21.2 | 4713 | -1.7
O=C(Nc1ccc(S(=O)(=O)Nc2nccs2)cc1)c1cnc(Cl)c(Cl)c1 | -2.6 | 2.6 | -7.7 | 38.2 | -14.6 | 6143 | 14.5
COc1ccc(N2C(=O)CC(NNC(=O)c3cccnc3)C2=O)cc1 (configuration not stated) | 7.6 | 3.9 | 4.1 | 5.0 | -24.0 | 3386 | 1.2
CC(C)Oc1ccc(CNC2CCOC(C)(C)C2)cc1 (configuration not stated) | 6.8 | 5.4 | 3.2 | -0.1 | -6.7 | 8908 | 18.5
COC(=O)C(Cc1ccccc1)NC(=O)CNC(=O)c1ccccc1OC (configuration not stated) | 1.3 | 4.6 | -12.9 | 4.6 | -20.8 | 3970 | -4.0
O=C(O)CSC1c2ccccc2C(=O)N1Cc1ccccc1 (configuration not stated) | 0.0 | 2.8 | -6.5 | -0.9 | -16.0 | 2369 | 8.9
CC(=O)Nc1cccc(C(=O)Nc2ccc(S(=O)(=O)NC3=NCCCCC3)cc2)c1 | 1.5 | -0.8 | -1.7 | 0.0 | -15.7 | ? | -4.8
O=c1c([N+](=O)[O-])c(N2CCOCC2)c2ccccc2n1-c1ccccc1 | 6.6 | 0.3 | -1.9 | -0.6 | -6.3 | 3369 | 18.5

# One compound at a time (already shown):
# CC(=O)Nc1cccc(C(=O)Nc2ccc(S(=O)(=O)NC3=NCCCCC3)cc2)c1 is listed as Sa ugtP lethal = 1.5; RN4220 kill = -0.8; BJeLR viability = -1.7; Mtb hypoxia rep growth = 0.0; PrP UTR inh = -15.7; Bead autofluor = ?; Mtb hypoxia rep = -4.8
# CC(C)Oc1ccc(CNC2CCOC(C)(C)C2)cc1 (configuration not stated) is listed as Sa ugtP lethal = 6.8; RN4220 kill = 5.4; BJeLR viability = 3.2; Mtb hypoxia rep growth = -0.1; PrP UTR inh = -6.7; Bead autofluor = 8908; Mtb hypoxia rep = 18.5
# COc1ccc(N2C(=O)CC(NNC(=O)c3cccnc3)C2=O)cc1 (configuration not stated) is listed as Sa ugtP lethal = 7.6; RN4220 kill = 3.9; BJeLR viability = 4.1; Mtb hypoxia rep growth = 5.0; PrP UTR inh = -24.0; Bead autofluor = 3386; Mtb hypoxia rep = 1.2

# (next part)
Molecule | Sa ugtP lethal | RN4220 kill | BJeLR viability | Mtb hypoxia rep growth | PrP UTR inh | Bead autofluor | Mtb hypoxia rep
CC12CCC(C(=O)NCC3CCCO3)(OC1=O)C2(C)C (configuration not stated) | -0.6 | 6.8 | 2.7 | nt | 10.2 | 2167 | nt
Cc1csc(NC(=O)c2nc3nc(C)cc(C)n3n2)n1 | 6.7 | 5.5 | -9.7 | nt | -47.2 | 5021 | nt
COc1ccc(NC(=O)c2cc3c(Cl)nc4ccccc4c3s2)cc1OC | -12.1 | -0.5 | -14.3 | 5.2 | -10.5 | 8198 | 6.7
O=C(Nc1ccc(-c2nc3ccccc3[nH]2)cc1)c1ccco1 | -0.9 | 2.3 | 14.7 | 4.1 | -95.9 | 5679 | 5.6
CCOc1ccc2ccccc2c1/C=N/n1cncn1 | nt | nt | 7.4 | nt | -1.0 | 3893 | nt
NC(=O)c1c(N)sc(=S)n1CC1CCCO1 (configuration not stated) | 3.9 | 1.7 | -8.4 | nt | -3.2 | 2331 | nt
COc1cc(C(=O)N2CCN(S(=O)(=O)c3ccc(Cl)cc3)CC2)ccc1OCC(=O)N1CCOCC1 | -1.0 | 1.8 | nt | 35.3 | -13.7 | 8729 | 7.5
CCCCOC(=O)c1nc[nH]c1C(=O)OCCCC | -6.5 | 2.0 | -5.5 | 5.4 | 3.7 | 4380 | 8.0
CC(=O)Nc1ccc(S(=O)(=O)N(C)CC(=O)OCC(=O)N2CCCC2=O)cc1 | 0.2 | 3.8 | 3.7 | -1.0 | -7.3 | ? | -0.5
Cc1ccc(C(=O)Nc2ccc(Br)c(C(F)(F)F)c2)cc1 | 90.7* | 60.9 | 5.8 | 28.6 | -54.0 | 16589* | 24.8
CC1(C)CC(=O)C=C(C(=O)N2CCCC(CCC(=O)NCc3ccccc3F)C2)O1 (configuration not stated) | 1.8 | 2.9 | -1.7 | 7.6 | -8.0 | 4169 | 1.6
Cc1[nH]c2ccccc2c1C(=O)CN1C(=O)C(=O)N(Cc2ccco2)C1=O | 5.5 | -12.2 | -5.2 | 0.2 | -23.6 | 3866 | 12.0
